Bioassay records (PubChem)
PTAP TSG101 blk – blocks PTAP/TSG101 interaction to inhibit HIV-1 budding; Q99816; Fluorescence polarization, FITC-PTAP peptide / Tsg101 binding; Potency, µM (doses to about 115 µM), without a hit: top-dose activity change, negative = inhibition, usual class: inhibitors; 340,000 tested, under 10 active; active = well fitted inhibition curve with a large enough effect in the main read-out, with a control signal flat, not every such curve was filed as active; inconclusive = small, poorly fitted or top-dose-only effect, or effect the other way, or a change in a side signal; inactive = no such curve, though single readings can be large or run the other way; also: potency is read from the fitted curve at half-maximal effect; % of control where 0% means no effect
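Fluorescence anisotropy tracks displacement of a FITC-tagged PTAP peptide (50 nM) from the Tsg101 binding domain (10 uM), following a 20 min room-temperature incubation at pH 7.5.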
Eya2 phos inh – blocks the phosphatase activity of human Eya2 | Potency, µM (doses to about 76.9 µM), for inactives: top-dose activity, negative = inhibition, actives largely listed as inhibitors | AID 488837 | hit rate 0.006% among 330,000 | recombinant Eya2, OMFP fluorescence dephosphorylation (OMFP is methylfluorescein phosphate); also: potency is read from the fitted curve at half-maximal effect; % is scaled to controls: 0 for no effect and ±100 for the full control effect
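Eya2 (0.2 uM) preincubated 10 min at ambient with compound, then OMFP substrate added at 50 uM; 10 min reaction in 50 mM HEPES pH 7.5, 50 mM NaCl, 5 uM MgCl2, 0.05% BSA, 1 mM DTT. Fluorescence read at Ex 485/Em 525 nm.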
Tb PFK block – blocks T. brucei phosphofructokinase. hit rate 0.17% among 330,000. T. brucei PFK, ADP-Glo luminescence. Potency, µM (highest dose often 57.5 µM), for the others: top-dose activity, negative = inhibition, actives largely listed as inhibitors. AID 485367. O15648;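 also: potency is read from the fitted curve at half-maximal effect; 0% = uninhibited 1x PFK enzyme wells and -100% = no-enzyme wells; nearly all actives have a fitted effect of over 60% in size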
Target sequence (O15648 whole entry, looked up): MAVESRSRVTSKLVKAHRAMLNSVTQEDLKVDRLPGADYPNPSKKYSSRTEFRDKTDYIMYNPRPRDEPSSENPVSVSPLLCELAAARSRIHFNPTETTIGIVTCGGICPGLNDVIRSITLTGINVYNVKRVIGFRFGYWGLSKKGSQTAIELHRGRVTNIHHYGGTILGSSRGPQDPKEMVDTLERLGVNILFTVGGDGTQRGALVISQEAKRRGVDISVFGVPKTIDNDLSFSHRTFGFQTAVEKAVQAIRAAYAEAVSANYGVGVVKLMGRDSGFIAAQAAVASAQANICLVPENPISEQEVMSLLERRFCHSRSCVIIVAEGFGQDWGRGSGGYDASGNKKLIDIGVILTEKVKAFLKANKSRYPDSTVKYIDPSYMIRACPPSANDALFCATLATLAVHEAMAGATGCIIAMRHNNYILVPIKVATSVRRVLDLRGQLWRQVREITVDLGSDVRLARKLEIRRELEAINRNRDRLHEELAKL
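In TEA buffer at pH 8.0 with 5 mM MgCl2, enzyme (1.25 nM) converted F6P (0.5 mM) and ATP (0.1 mM) for 45 min at room temperature. ADP product was read by luciferase luminescence.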
Chronic BCR inh – chronic active BCR signaling inhibition; AID 493014; ABC-DLBCL IkBa-CBG/CBR reporter, luminescence ratio, 4 h; hit rate 0.05% among 340,000; Potency, µM (titrated, usually from 46.1 µM), for inactives: at the top dose ratio change, negative = lower green/red ratio, hits mostly inhibitors; active = well fitted inhibition curve with a large enough effect in the signal ratio, with a control signal flat, not every such curve was filed as active; inconclusive = small, poorly fitted or top-dose-only effect, or effect the other way, or a change in a side signal; the % refers to the signal ratio;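 also: potency is read from the fitted curve at half-maximal effect; plate controls were basal doxycycline-induced cells for no effect and cells given 10 µM MG132 for full effect; MG132 reads +100%, hits lower the ratio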
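Doxycycline induced both beetle luciferases in TMD8 lymphoma cells; IKK-driven degradation limits the IkappaBalpha-fused green signal, while red luminescence normalises for cell number and nonspecific effects. Compounds tested up to 46 uM, 4 hrs.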
ELG1 repair inh – blocks ELG1-dependent DNA repair in HEK293T cells. HEK293T ELG1-luciferase reporter, luminescence, 16 h; DNA damage induced by 5-fluorouridine. Potency, µM (titrated, usually from 46.1 µM), inactives show at the highest dose activity change, negative = inhibition, hits mostly inhibitors. hit rate 2.3% among 330,000; also: potency is read from the fitted curve at half-maximal effect; % is scaled to controls: 0 for no effect and ±100 for the full control effect; nearly all actives have a fitted effect of over 55% in size
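HEK293T cells expressing luciferase-tagged ELG1 (2,000/well) received 5-Fluorouridine plus compound or DMSO for 16 hr at 37 °C. Luciferase was read by ONE-Glo luminescence after 30 min at room temperature.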
uPA generation – cell surface uPA generation inhibition; cell surface uPA generation assay, qHTS; Potency, µM (highest dose often 38.3 µM), for inactives: at the highest dose activity change, negative = inhibition, most hits filed as inhibitors; hit rate 0.31% among 330,000; AID 540303; active = well fitted inhibition curve with a large enough effect; inconclusive = small, poorly fitted or top-dose-only effect; inactive = no such curve, though single readings can be large or run the other way; tested in mouse RAW 264.7 cells; also: potency is read from the fitted curve at half-maximal effect; % is scaled to controls: 0 for no effect and ±100 for the full control effect; nearly all actives have a fitted effect of over 55% in size
Mito fusion yeast – mitochondrial division inhibition or fusion activation; Potency, µM (series often up to 46.1 µM), for inactives: top-dose growth rescue (activation), actives largely listed as activators; S. cerevisiae fusion-defective mutant growth rescue, CellTiterGlo 48 h; hit rate 0.23% among 320,000;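 also: potency is read from the fitted curve at half-maximal effect; % of control where 0% means no effect; nearly all actives have a fitted effect of over 45% in size; temperature-sensitive fusion mutants such as fzo1-1 at 37 °C on non-fermentable ethanol glycerol medium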
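Temperature-sensitive fusion-defective S. cerevisiae (e.g. fzo1-1, mgm1-5) were grown with compound in YPEG medium (3% ethanol, 3% glycerol) for 48 hours at 37C. Growth rescue was measured as viability by CellTiterGlo luminescence after 10 minutes at ambient.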
USP2a inh – USP2a (human) protease inhibition. USP2 core, Ub-CHOP2 coupled fluorogenic reporter, 485/531. Potency, µM (highest dose often 38.3 µM), for the others: at the highest dose activity change, negative = inhibition, usual class: inhibitors. hit rate 0.01% among 330,000;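 also: potency is read from the fitted curve at half-maximal effect; plate controls were DMSO wells for no effect and full inhibition by NEM control for full effect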
Target sequence (O75604 whole entry, looked up): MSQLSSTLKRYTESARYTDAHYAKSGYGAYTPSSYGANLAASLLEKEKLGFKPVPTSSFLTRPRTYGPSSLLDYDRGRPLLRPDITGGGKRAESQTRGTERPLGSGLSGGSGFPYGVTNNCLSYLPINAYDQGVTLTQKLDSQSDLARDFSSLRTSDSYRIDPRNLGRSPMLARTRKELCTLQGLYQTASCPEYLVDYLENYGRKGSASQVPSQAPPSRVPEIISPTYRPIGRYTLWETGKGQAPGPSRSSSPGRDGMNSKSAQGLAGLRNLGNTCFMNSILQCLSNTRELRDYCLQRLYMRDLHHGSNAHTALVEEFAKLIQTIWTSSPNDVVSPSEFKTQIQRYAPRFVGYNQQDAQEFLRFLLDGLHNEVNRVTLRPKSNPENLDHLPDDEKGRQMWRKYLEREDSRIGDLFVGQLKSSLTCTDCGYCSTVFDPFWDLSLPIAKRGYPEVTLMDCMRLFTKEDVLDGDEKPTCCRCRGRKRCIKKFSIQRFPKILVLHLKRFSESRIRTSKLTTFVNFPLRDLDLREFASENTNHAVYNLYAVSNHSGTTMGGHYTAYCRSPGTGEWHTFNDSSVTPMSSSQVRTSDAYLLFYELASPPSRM
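Deubiquitinase activity read as fluorescence (485/531 nm) after Ub-CHOP2 cleavage activates the enterokinase reporter on its substrate; USP2 core 10nM, Ub-CHOP2 and substrate 25nM each, 30min compound preincubation then 60min RT; data normalized to NEM, curves fitted.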
TCR activator – activates T cell receptor signaling. 330,000 tested, under 10 active. Potency, µM (series often up to 9.22 µM), for inactives: top-dose activation of IL-2 secretion, hits mostly activators. AID 504894. primary human leukocytes, anti-CD3, IL-2 HTRF, 48 h; also: % of control where 0% means no effect
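Human primary leukocytes + a-CD3 beads + cpd, 48 hr; IL-2 in supernatant by HTRF (ex 320nm / em 665nm). No co-stimulatory signal supplied.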
B2AR arrestin – agonists driving beta-arrestin recruitment to human beta2-adrenergic receptor; P07550; beta-arrestin recruitment to beta2AR, cell-based reporter; Potency, µM (highest dose often 46.1 µM), for inactives: top-dose activation, actives largely listed as activators; hit rate 0.02% among 330,000; AID 492947;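 also: potency is read from the fitted curve at half-maximal effect; 0% = DMSO controls and full agonism = EC100 isoproterenol or metaproterenol; nearly all actives have a fitted effect of over 65% in size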
Active calls of the source: *; ? = inconclusive; . = not tested or not shown; & = joins results of further samples; [ ] = another dose, or the depositor's remark. Unless noted, calls follow the shape of the dose curve; as a rule, active = well fitted curve in the direction sought with a large enough effect; inconclusive = small, poorly fitted or top-dose-only effect, or another doubt; inactive = no such curve, though single readings can be large; an effect the other way counts as inactive or inconclusive. A portion of the library; count on the stated rates, not on these rows.

SMILES	PTAP TSG101 blk	Eya2 phos inh	Tb PFK block	Chronic BCR inh	ELG1 repair inh	uPA generation	Mito fusion yeast	USP2a inh	TCR activator	B2AR arrestin
CCOC(=O)N1CCC(NC(=O)Cn2ncc3c4ccccc4n(C)c3c2=O)CC1	0%	3%	-9%	?	?	2%	-8%	3%	-1%	0.3%
CO[C@@]1(NC(=O)CSCC#N)C(=O)N2C(C(=O)O)=C(CSc3nnnn3C)CS[C@@H]21	1%	2%&5%	0%	-1%	-5%	14%	3%&-3%	0%	10%	0.1%
COc1ccc(C(=O)Nc2ccc(C3(C#N)CCCC3)cc2)cc1OC	-1%	-13%	-1%	-9%	?	?	-7%	1%	5%	0.2%
C=CCn1c(CCNC(=O)c2ccccc2F)nnc1SCC(=O)Nc1ccc(OC)cc1	0%	-12%	-8%	-9%	-6%	0%	-4%	3%	4%	0.1%
CC1=C(C(=O)Nc2cc(C)ccn2)C(c2ccc(C)cc2)C2=C(CCCC2=O)N1 (stereo not given)	2%	2%	-1%	-3%	24%	7%	1%	-2%	-5%	-0.3%
Cc1ccc(NC(=O)N2C(=O)C3(OCCO3)c3ccccc32)cc1	-7%	25%	-7%	-1%	?	-1%	2%	3%	0%	-0.1%
COc1ccccc1C(CC(=O)Nc1ccc(Cl)cc1)c1ccc(OC(C)C)cc1 (stereo not given)	-1%	3%	-4%	10%	-15%	0%	7%	-14%	1%[46.1 µM]	0.1%
COc1ccccc1C(=O)NC(=O)CSc1nncn1C(C)C	-4%	-8%	4%	-10%	9%	18%	-2%	0%	1%	-0.2%
CCOc1ccccc1NS(=O)(=O)c1c[nH]c(C(=O)OC)c1	-3%	11%	1%	-18%	-26%	?	-1%	-4%	5%	-1.2%
O=[N+]([O-])c1c(NCCCO)cc(N2CCCCCC2)c2nonc12	-6%	-11%	8%	-2%	0%	-13%	6%	4%	1%	0.2%
C(=C1/CCCC2=C1Nc1ncnn1C2c1ccccc1)/c1ccccc1 (stereo not given)	.	2%	6%	?	?	.	-11%	-2%	.	-0.9%
CC(=O)N1CCc2cc(C(=O)CN3CCC(C)CC3)ccc21	0%	4%	1%	-1%	11%	-2%	-5%	-2%	2%	-0.5%
CC12C=CC(=O)C=C1CCC1C2C(O)CC2(C)C1CCC2(O)C(=O)CO (stereo not given)	-1%	.	.	.	.	-14%	.	.	7%	.
Cc1cc(N)n(-c2ccc(S(=O)(=O)N3CCOCC3)cc2[N+](=O)[O-])n1	-2%	9%	1%	0%	-13%	-4%	0%	12%	4%	-0.8%
Cc1cccc(Nc2ccccc2C(=O)O)c1C	-3%	6%	-1%	3%	4%	-7%	?	-3%	-7%	-0.2%
COc1ccc(-c2csc3ncnc(N4CCN(Cc5ccccc5)CC4)c23)cc1	-5%	0%	0%	3%	?	0%	-4%	2%	6%	8.2%
COc1ccc(CCNC(=O)CSc2nc3[nH]ncc3c(=O)n2-c2ccc(C)c(Cl)c2)cc1OC	-1%	-10%	-1%	?	?	?	2%	-1%	15%	5.1%
CC(=O)CSc1nnc(C(F)(F)F)n1C	0%	5%	-7%	8%	0%	-4%	-1%	-1%	5%	-0.8%
O=C(CC1C(=O)NCCN1Cc1c(F)cccc1Cl)NCCC1=CCCCC1 (stereo not given)	0%	5%	1%	2%	2%	14%	0%	4%	0%	-0.1%
Cc1ccc(NC(=O)c2cccs2)cc1S(=O)(=O)N(C)C	-12%	-3%	3%	2%	22%	-3%	2%	1%	1%[46.1 µM]	-1.3%
O=C(/C=C/c1cccc([N+](=O)[O-])c1)c1ccco1	0%	2%	-2%	-3%	?	-13%	-24%	0%	-6%	-1.8%
COc1cccc(CN(C(=O)c2ccco2)C(C(=O)NC2CCCC2)c2cccnc2)c1 (stereo not given)	-2%	-3%	3%	-1%	-2%	-5%	-6%	-2%	-3%	0.1%
COc1ccc(CN2CCN(c3ncnc4scc(-c5ccc(F)cc5)c34)CC2)cc1	1%	-2%	-1%	?	?	-11%	4%	-4%	1%	-1.1%
C/C(=N\NC(=O)c1ccc([N+](=O)[O-])cc1)c1c(O)cc(C)oc1=O	-4%	-2%	-3%	?	1%	2%	10%	0%	0%	0.1%
O=C(c1ccc(Cl)s1)N1CCN(S(=O)(=O)c2ccc(Cl)cc2)CC1	-9%	3%	12%	-1%	-9%	1%	.	3%	1%	-0.7%
O=C(N/N=C/c1cn(-c2ccccc2)nc1-c1ccccc1)c1ccco1	-6%	6%	-11%	?	-10%	.	-3%	-2%	-4%	0.2%
COc1ccc2c(CC(=O)NNC(=O)c3ccc(C)cc3)coc2c1	-1%	-8%	1%	0%	16%	5%	.	-6%	-4%	-0.1%
CC(C)NCC(O)c1cc(O)cc(O)c1 (stereo not given)	-1%	-9%&7%	0%	0%	8%	?	-10%&11%	-8%	-19%	-0.9%
CCC(c1ccc(O)cc1)C(CC)c1ccc(O)cc1 (stereo not given)	0%	10%	0%	2%	-2%	-9%	?	0%	0%	0.1%
CCCCCn1ccc(=O)c2c(C(F)(F)F)nccc21	-4%	5%	0%	1%	5.8µM*	0%	-2%	0%	7%[46.1 µM]	0.1%
COCCN1CCN(C(=O)c2cc(COc3cc(C)ccc3C)on2)CC1	-4%	-1%	-18%	-1%	?	-2%	-25%	-1%	6%	-0.2%
CCOC(=O)C1CCN(C(=O)c2ccc3c(c2)NC(=O)/C(=C/c2ccccc2)S3)CC1	-5%	0%	-2%	-10%	-11%	5%	-8%	0%	2%	-0.1%
Cc1cc(C)c2c(CC(=O)NCCc3ccccc3)coc2c1	0%	-16%	-1%	-1%	0%	1%	5%	1%	1%	0.3%
COC(=O)C1=C(C)N(C)C(=S)NC1c1c(OC)ccc2ccccc12 (stereo not given)	-2%	3%	10%	-2%	-25%	-2%	-5%	0%	13%	-0.3%
CCCC(=O)NCCc1cc(OC)c(OC)cc1Br	-4%	-2%	0%	4%	1%	3%	-3%	3%	1%[46.1 µM]	-0.2%
CCOc1ccc(/C=N/n2c(C)nnc2C)cc1OC	0%	14%	0%	-7%	?	-1%	-3%	-1%	-2%	-0.2%
NS(=O)(=O)c1ccc(NC(=O)CSc2nnc(COc3ccccc3Cl)n2C2CC2)cc1	-4%	-2%	0%	?	-12%	-8%	-4%	0%	-3%	0.1%
CC1(C(=O)NC2CCCCCC2)CCC(=O)N1Cc1ccc2c(c1)OCO2 (stereo not given)	-4%	-10%	0%	1%	0%	3%	0%	5%	2%	-0.1%
CC(C)NC(=O)C1(S(=O)(=O)c2ccccc2)CC=CC1	-3%	0%	0%	-3%	-3%	9%	0%	1%	-2%	0.2%
CCOc1ccccc1N(C(=O)c1snc(C(N)=O)c1N)C(C(=O)NCCC(C)C)c1ccco1 (stereo not given)	-5%	-12%[15.4 µM]	-8%	?	-21%	-15%	5%	3%	4%	-1.4%
CC(=O)c1ccccc1N(C(=O)c1ccco1)C(C(=O)NC1CCCC1)c1ccc(C)cc1 (stereo not given)	-16%	0%	-2%	8%	-2%	-2%	-4%	-1%	-4%	-0.3%
OC(CCN1CCCCC1)(c1ccccc1)c1ccccc1	-3%	-4%	-1%	?	6%	5%	-3%	3%	3%	0.3%
CCCn1c(C2CCCN2c2nc(C)cs2)nc2cc(Cl)c(Cl)cc21 (stereo not given)	2%	-3%	4%	?	?	-10%	-4%	-2%	2%	?
COC(=O)C1=NN(c2ccccc2OC)C2C(=O)N(c3ccccc3OC)C(=O)C12 (stereo not given)	0%	5%	0%	?	2%	3%	-1%	1%	-1%[46.1 µM]	-0.2%
CCC/C(O)=C1\C(=O)CC(C)(C)CC1=Nc1cccc([N+](=O)[O-])c1	-1%	7%	-1%	8%	9%	-5%	6%	6%	-13%	0.4%
O=C(CS(=O)(=O)c1ccccc1)Nc1nnc(C(F)(F)F)s1	-4%	6%	8%	?	0%	0%	12%	-1%	5%	-0.9%
COc1ccc(NS(=O)(=O)c2ccc(N3CCOCC3)c(NC(=O)c3ccccc3Cl)c2)cc1	0%	-6%	-2%	-2%	-9%	-8%	3%	-2%	-11%[46.1 µM]	0.0%
Cc1ccccc1OCCC(=O)Nc1ccc(F)c(Cl)c1	-2%	-7%	-6%	0%	?	5%	21%	0%	-7%	0.1%
CC12CCC(C/C1=N\N=C1\NC(=O)/C(=C\c3cccc(Br)c3)S1)C2(C)C (stereo not given)	-1%	-15%	2%	?	-9%	4%	14%	-6%	-2%[46.1 µM]	-2.9%
O=C(CCCn1ncn2c(cc3occc32)c1=O)N1CCc2ccccc2C1	-3%	2%	1%	-2%	-14%	9%	8%	2%	2%[46.1 µM]	-0.1%
